Screening results: PubChem, National Center for Advancing Translational Sciences (NCATS)
Vaccinia Venus: vaccinia inhibition (Venus reporter); Potency, µM (titrated, usually from 36.5 µM), for the others: at the top dose activity change, negative = inhibition, hits mostly inhibitors; Vaccinia virus Venus reporter expression, fluorescence; 330,000 compounds, 0.46% hits; AID 720580; active means well fitted inhibition curve with a large enough effect; inconclusive means small, poorly fitted or top-dose-only effect; inactive means no such curve, though single readings can be large or run the other way; tested in A549 cells; also: nearly all actives have a fitted effect of over 30% in size; inactives centre near -10
Vaccinia mCherry: inhibitors of vaccinia virus infection (mCherry reporter signal); Vaccinia virus mCherry reporter infection, fluorescence; about a quarter of the inactives have no number; Potency, µM (titrated, usually from 36.5 µM), for the others: top-dose activity change, negative = inhibition, actives largely listed as inhibitors; 310,000 compounds, 0.63% hits; active = well fitted inhibition curve with a large enough effect; inconclusive = small, poorly fitted or top-dose-only effect; inactive = no such curve, though single readings can be large or run the other way; tested in A549 cells; also: nearly all actives have a fitted effect of over 35% in size; inactives centre near -10
Active calls of the source: *; i = inactive; ? = inconclusive; . = not tested or not shown; & = joins results of further samples; [ ] = dose if it differs, or a comment. % is scaled to controls: 0 for no effect and ±100 for the full control effect; potency is read from the fitted curve at half-maximal effect.

| mol | Vaccinia Venus | Vaccinia mCherry |
| --- | --- | --- |
| FC(F)(F)c1ccc2c(c1)ncc1c(-c3ccccc3)nn(-c3ccccc3)c12 | -4% | -6% |
| COc1ccc(Cl)cc1N/C(N)=N/c1nc(C)cc(C)n1 | 6% | i |
| COc1ccccc1C(=O)NC1(C(F)(F)F)NC(=O)N(CCc2ccccc2)C1=O (configuration not stated) | 0% | 1% |
| O=C(Nc1ccccc1N1CCOCC1)c1cc(Cl)c2c(c1)OCO2 | -9% | i |
| COc1cccc(OC)c1C(=O)NNC(=O)c1ccccc1-n1cccc1 | -3% | i |
| OCCCn1c(C2CCCN2c2nc(-c3ccc(F)cc3)cs2)nc2cc(C(F)(F)F)ccc21 (configuration not stated) | ? | -27% |
| O=C(CN1CCN(S(=O)(=O)c2ccc(F)c(Cl)c2)CC1)N1CCc2ccccc21 | -24% | -28% |
| COc1ccc(C(=O)COC(=O)CN2CC(=O)Oc3ccccc32)cc1Br | -16% | -4% |
| C=CCNC(=S)N1CCC2CC1c1c(Cl)cccc12 (configuration not stated) | -7% | -1% |
| O=C(Nc1ccc(CN2CCOCC2)cc1)c1ccc2ccccc2c1 | -28% | -27% |
| CCOC(=O)c1c(C)[nH]c(C)c1S(=O)(=O)N1CCCC(C(=O)NCc2ccc(Cl)cc2)C1 (configuration not stated) | -14% | -15% |
| COc1cccc2c1ncc1c(-c3ccc(C)cc3)nn(-c3ccc(F)cc3)c12 | -4% | -4% |
| C=C(C)CNC(=S)N/N=C/c1ccc(NC(C)=O)cc1 | -10% | -2% |
| CCc1cccc(NC(=O)CSc2ncccc2C(=O)Oc2ccccc2Cl)c1 | -12% | -11% |
| CCOc1ccc(NC(=O)CC2C(=O)N(c3cccc(C)c3)C(=O)N2CCC2=CCCCC2)cc1 (configuration not stated) | -13% | i |
| CC(=O)c1ccc(NS(=O)(=O)c2ccc3[nH]c(=O)[nH]c3c2)cc1 | -6% | -6% |
| O=C(COc1ccc(C(=O)c2ccc(F)cc2)cc1)NCc1ccc(F)cc1 | -26% | ? |
| CN(Cc1ccccc1)C(=O)COC(=O)C12CC3CC(CC(Br)(C3)C1)C2 | -7% | -18% |
| O=C(Cn1cc(COc2ccccc2[N+](=O)[O-])nn1)c1ccc(O)cc1 | -13% | -8% |
| COc1ccc(CCNC(=O)CCN2C(=O)COc3ccccc32)cc1OC | -17% | -22% |
| COc1ccc(C(=O)CC(C(=O)O)c2ccc3c(c2)OCO3)cc1OC (configuration not stated) | 1% | i |
| Cc1ccc(NC(=O)CN2C(=O)S/C(=C\c3cccn3-c3cccc(C(=O)O)c3)C2=O)cc1C | -1% | -7% |
| COc1ccc(N(C(=O)CNC(=O)c2ccco2)C(C(=O)NC2CCCCC2)c2ccco2)cc1 (configuration not stated) | -14% | i |
| O=c1ccc(-c2ccc(S(=O)(=O)NCC3CCN(Cc4cccc(F)c4)CC3)s2)n[nH]1 | -12%[7.34 µM] | -13%[7.34 µM] |
| CNC(=O)C(C)c1ncc(C(F)(F)F)cc1Cl (configuration not stated) | -17% | -2% |
| Cc1ccc(NC(=O)c2ccc(S(=O)(=O)N3CCC(C)CC3)cc2)nc1 | -21% | ? |
| c1ccc(CSc2ccc(-c3ccccn3)nn2)nc1 | ? | ? |
| Fc1cccc(NC(=S)NNc2c3ccccc3nc3ccccc23)c1 | ? | ? |
| CCOc1cc(Cn2c(-c3ccc(O)c(OCC)c3)nc3ccccc32)ccc1O | -20% | -25% |
| CCOc1cc(C2C(C#N)=C(N)Oc3cc(N)ccc32)ccc1O (configuration not stated) | -9% | i |
| COc1cc2c(cc1NC(=O)c1cc(-c3ccncc3)nc3ccccc13)oc1ccccc12 | 2% | -20% |
| CCC(c1nnnn1-c1ccc2c(c1)OCCO2)N1CCC(n2c(=O)[nH]c3ccccc32)CC1 (configuration not stated) | -11% | 6% |
| COc1ccc(S[C@@H](CCN2CC[C@H](O)CCC2=O)c2ccccc2)cc1 | -15%&-15% | i |
| O=C(O)C1CSC2c3ccccc3C(=O)N12 (configuration not stated) | -10% | i |
| COCCNC(=O)CSc1nc(-c2ccccc2)c(-c2ccccc2)o1 | -13% | -12% |
| CCCCN(C)CCN1C(=O)C2C(C(=O)Nc3ccc(OC)cc3)C3C=CC2(O3)C1C(=O)NC1CCCCC1 (configuration not stated) | -26% | -9% |
| Cc1ccccc1C(=O)NCC(=O)Nc1ccccc1C(F)(F)F | 4% | -14% |
| COc1ccc(C2C(=O)NN=C2C)cc1 (configuration not stated) | -9% | i |
| CCOC(=O)c1c(NC(=O)Cn2nnc3ccccc32)sc2c1CCC(C)C2 (configuration not stated) | ? | . |
| CC(=O)c1ccc(N2CCN(C3C(=O)c4ccccc4N3C(C)=O)CC2)cc1 (configuration not stated) | -16% | -13% |
| CC(=O)Nc1ccc(NC(=O)COC(=O)c2ccc(C)s2)cc1 | 0% | -4% |
| Cc1ccc(-n2nnnc2SCC(=O)Nc2ccc3c(c2)COC3=O)cc1C | -18% | -19% |
| COC(=O)c1ccc(OC)c(CSc2nnc(-c3ccc(C)cc3)o2)c1 | -1% | -25% |
| O=C(CCC(=O)N1CCN(S(=O)(=O)c2ccc([N+](=O)[O-])cc2)CC1)N1CCOCC1 | -2% | i |
| Cc1cc(C(=O)NCc2cccnc2)n(-c2ccccc2)n1 | -5% | i |
| CNC(=O)COC(=O)c1ccc(NS(=O)(=O)c2ccc3c(c2)OCCO3)cc1 | -11% | i |
| Cc1ccccc1N1CC(C(=O)Nc2nnc(SCc3cccnc3)s2)CC1=O (configuration not stated) | -7% | -21% |
| Cc1ccc(C)c(S(=O)(=O)N2CCCCC2CCNC(=O)C(=O)NCc2ccccn2)c1 (configuration not stated) | -21% | -8% |
| Nc1ncc(S(=O)(=O)NCc2ccc(Cl)cc2)cn1 | -2% | -11% |
| N#Cc1ccc(N2C(=O)[C@@H]3C(C(=O)C(c4ccccc4)c4ccccc4)=NN[C@@H]3C2=O)cc1 | -10% | -2% |
| Cc1ccc(NC(=O)C(=O)NCC(c2cccnc2)N2CCN(c3ccccc3F)CC2)cc1Cl (configuration not stated) | -17% | -18% |
| Cn1c(C(C#N)C(=O)Cc2cccc3ccccc23)nc2ccccc21 (configuration not stated) | 5% | 3% |
| O=C(c1ccc2c(c1)N(Cc1ccccc1)C(=O)c1ccccc1S2(=O)=O)N1CCC(Cc2ccccc2)CC1 | -9% | i |
| O=C(NCCc1cccs1)c1ccc(Cl)c(Cl)c1 | ? | ? |
| CCc1nnc2c3ccccc3nc(Nc3ccccc3OC)n12 | 4% | -9% |
| Cc1ccc(NC(=O)c2oc3c(c2C)-c2[nH]ncc2CC3)c(Cl)c1 | -3% | -10% |
| CCOC(=O)C1CCCN(C(=O)CC(C)c2ccccc2)C1 (configuration not stated) | -4% | -11% |
| Cc1ccc(-c2n[nH]c(=O)c3ccccc23)cc1S(=O)(=O)Nc1ccc(F)cc1 | -16% | i |
| CCn1c(C)nc2cc(C(=O)NNC(=O)CCC3CCCC3)ccc21 | -8% | i |
| CCc1nc(SC)ncc1C(=O)Nc1ccc(Cl)cc1C(=O)c1ccccc1 | 7% | 14% |

The listing continues:
| mol | Vaccinia Venus | Vaccinia mCherry |
| --- | --- | --- |
| Cc1nc(SCC(=O)Nc2ccc(F)cc2)c(C#N)c(C)c1CC(=O)c1ccc(Br)cc1 | -22% | . |
| CCCn1c(N)c(N(CCOC)C(=O)c2ccccc2F)c(=O)[nH]c1=O | -10% | i |
| CC(=O)Nc1cc(-c2ccc(N3CCN(C)CC3)cc2)cn2c(-c3ccc(F)cc3)cnc12 | -16% | -24% |
| NC(=O)C1CCN(CC(=O)c2c[nH]c3ccc(F)cc23)CC1 | -1% | -11% |
| N#CN(CC(N)=O)c1nc(N2CCCCC2)nc(N2CCCCC2)n1 | -6% | . |
| Cn1ccc2c(OCC(=O)Nc3ccc([N+](=O)[O-])cc3)cccc2c1=O | -15% | -9% |
| Cc1ccc(C(CNS(=O)(=O)c2ccc(F)cc2)N2CCN(C)CC2)cc1 (configuration not stated) | -16% | i |
| Cc1ccc(N(CC(=O)O)S(C)(=O)=O)cc1Cl | -4% | i |
| COc1cc(NC(=O)CSC2=Nc3ccccc3N=C(c3ccc(F)cc3)C2)cc(OC)c1 | -7% | -9% |
| CSc1ccc(CNCCCSc2ncccn2)cc1 | -12% | -15% |
| CSc1nnc2n(-c3cccc(C)c3)c(=O)c3c4c(sc3n12)CCCC4 | -12% | -17% |
| Cc1cc(C)cc(NS(=O)(=O)c2ccc(-c3cc(C)no3)s2)c1 | ? | ? |
| O=C(C1CCC(=O)N1C1CCCCC1)N1CCN(c2ccc(F)cc2)CC1 (configuration not stated) | -27% | -4% |
| CCOc1ccc(NC(=O)c2cccc(NC(C)=O)c2)cc1S(=O)(=O)N1CCCC1 | -16% | -18% |
| COc1ccc(S(=O)(=O)NC(CC(=O)NCc2ccco2)C(C)C)cc1 (configuration not stated) | -6% | . |
| Cc1ccc2nc(-c3cccnc3)c(Nc3ccc(C(C)C)cc3)n2c1 | -16% | -10% |
| Cc1cc(=O)[nH]c(SCC(=O)N(CCC#N)c2ccccc2)c1C#N | -3% | -4% |
| C=CCN1C(=O)c2ccc(C(=O)N(C)CC(=O)Nc3ccccc3Br)cc2C1=O | -12% | i |
| O=C(NCCc1c[nH]c2ccccc12)/C(=C\c1cccnc1)NC(=O)c1ccccc1F | -21% | ? |
| Cc1ccc(S(=O)(=O)N2CCCC2)cc1[N+](=O)[O-] | -12% | -2% |
| O=C(Cc1cccs1)Nc1nc(-c2ccc(F)c(F)c2)cs1 | -8% | ? |
| CCN(CC)S(=O)(=O)c1ccc2c3c(cccc13)C(=O)N2 | -14% | ? |
| FC(F)(F)c1cccc(N2CCN(C(=S)NCC3CCCO3)CC2)c1 (configuration not stated) | -23% | -26% |
| COC(=O)c1ccc(NC(=O)C(=O)c2cccn2C)cc1 | -11% | -26% |
| COc1cc(C(C)=O)ccc1OCc1cc(C(=O)N2CCSCC2)no1 | -10% | -9% |
| COc1ccccc1N(CC(=O)NCCSCc1ccc(Cl)cc1)S(C)(=O)=O | -23%&-13% | -2%&-12% |
| COc1cccc2c1OC1(N3CCOCC3)CCCCC1C2C[N+](=O)[O-] (configuration not stated) | -7% | -6% |
| COc1ccc(NC(=O)CCC(=O)c2ccc(-c3ccccc3)cc2)cc1 | -5% | -14% |
| O=C(Cc1ccc(Cl)cc1)Nc1ccc(N2CCN(C(=O)c3ccco3)CC2)c(Cl)c1 | ? | ? |
| CCOc1ccc(CNC(=O)CCc2cn(C)c3ccccc23)cc1 | -2% | -12% |

Random excerpt: two compounds from above.
| mol | Vaccinia Venus | Vaccinia mCherry |
| --- | --- | --- |
| CCOc1ccc(NC(=O)c2cccc(NC(C)=O)c2)cc1S(=O)(=O)N1CCCC1 | -16% | -18% |
| Cc1ccc(N(CC(=O)O)S(C)(=O)=O)cc1Cl | -4% | i |

(list continues)
| mol | Vaccinia Venus | Vaccinia mCherry |
| --- | --- | --- |
| C/C=C/C=C\C(=O)Nc1cccc(C2=NOC3(C2)C[C@@H](C(N)=O)N(C(=O)/C(C)=C/C)C3)c1 (some centres not stated) | -5% | i |
| CCOC(=O)c1sc(NC(=O)CSc2ccccn2)c(C#N)c1C | -3% | -17% |
| O=C(Cc1coc(-c2ccc(F)cc2)n1)Nc1ccccc1 | -16% | . |
| Fc1ccc(-n2c(-c3cccs3)nc3nc4ccccc4nc32)cc1 | -2% | -22% |
| CC(C)(C)C1CCc2c(sc(NC(=O)c3ccco3)c2C(N)=O)C1 (configuration not stated) | -8% | -5% |
| CCCOc1ccc(C(=O)Nc2ccc(NC(=O)c3cccs3)cc2)cc1 | -4% | -10% |
| COc1cccc(C(=O)N2CCC(C(=O)N3CCN(C)CC3)CC2)c1 | 19% | 14% |
| O=C(NCCc1ccccc1)C(=O)NCC1OCCN1S(=O)(=O)c1ccc([N+](=O)[O-])cc1 (configuration not stated) | -7% | -23% |
| COC(=O)c1ccc(Cl)c(NC(=O)c2cccc([N+](=O)[O-])c2C)c1 | -10% | i |
| O=C(Nc1ccccc1)c1ccccc1NC(=O)c1ccccc1C(=O)O | -17% | -3% |
| COc1cc(OC)c2c(c1)C(=O)OC2 | -7% | i |
| COc1ccc(CCN(Cc2cccs2)S(=O)(=O)c2ccc(S(=O)(=O)N3CCC(C)CC3)cc2)cc1OC | -13% | -16% |
| COc1ccc(Cn2ccc3nc(C)c(C(=O)Nc4cccc(SC)c4)cc3c2=O)cc1 | -16% | -6% |
| O=C(NCCc1ccccc1)/C(=C/c1ccco1)c1ccccc1 | -11% | i |
| Cc1ccc(S(=O)(=O)N2CCCC(C(=O)NNCC(=O)Nc3cc(F)ccc3F)C2)cc1 (configuration not stated) | -10% | -13% |
| Cc1ccc(NC(=O)COc2cccc(-n3cnnn3)c2)cc1[N+](=O)[O-] | -8% | -10% |
| CC(C)Cc1ccc(C(C)NC(=O)Cc2ccc(S(=O)(=O)N3CCOCC3)s2)cc1 (configuration not stated) | ? | -27% |

Some of the entries so far, with each value named.
CCCOc1ccc(C(=O)Nc2ccc(NC(=O)c3cccs3)cc2)cc1
  Vaccinia Venus = -4%; Vaccinia mCherry = -10%

COc1cccc(C(=O)N2CCC(C(=O)N3CCN(C)CC3)CC2)c1
  Vaccinia Venus = 19%; Vaccinia mCherry = 14%

O=C(NCCc1ccccc1)C(=O)NCC1OCCN1S(=O)(=O)c1ccc([N+](=O)[O-])cc1 (configuration not stated)
  Vaccinia Venus = -7%; Vaccinia mCherry = -23%

COC(=O)c1ccc(Cl)c(NC(=O)c2cccc([N+](=O)[O-])c2C)c1
  Vaccinia Venus = -10%; Vaccinia mCherry = i
